PINK1 modulator: PINK1 expression modulation | Potency, µM (top dose mostly 76.6 µM), inactives show at the highest dose activation (PINK1 increase), usual class: activators | AID 624263 | 410,000 compounds, 0.2% hits | PINK1 immunofluorescence, high-content cytometry, 24 h; active = well fitted activation curve with a large enough effect; inconclusive = small, poorly fitted or top-dose-only effect; inactive = flat fitted curve, though single readings scatter; cell line not stated here;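 note: potency is the fitted concentration of half-maximal effect; % of control where 0% means no effect; nearly all actives have a fitted effect of over 65% in size; a mitochondrial uncoupler was the plate control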
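Fluorescence from anti-PINK1 antibody, together with nuclear and cell stains, was scanned on a laser-scanning cytometer. Before staining, stable-line cells were incubated 24 hours with compounds at 5 concentrations; primary antibody 12 h at 10 degrees C.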
TRPV1 PAM: human TRPV1 potentiation | Q8NER1 | TRPV1-expressing cells, Fluo-8 calcium influx, capsaicin EC20 potentiation; host cell line not named in the record; control for the full effect not named in the record | potentiation, % at 8.33 µM | 320,000 compounds, 0.02% hits; active means potentiation above 80%; inconclusive means 30% to 80%; inactive means below 30%; note: 0% is about no effect
Target sequence (Q8NER1 whole entry, looked up): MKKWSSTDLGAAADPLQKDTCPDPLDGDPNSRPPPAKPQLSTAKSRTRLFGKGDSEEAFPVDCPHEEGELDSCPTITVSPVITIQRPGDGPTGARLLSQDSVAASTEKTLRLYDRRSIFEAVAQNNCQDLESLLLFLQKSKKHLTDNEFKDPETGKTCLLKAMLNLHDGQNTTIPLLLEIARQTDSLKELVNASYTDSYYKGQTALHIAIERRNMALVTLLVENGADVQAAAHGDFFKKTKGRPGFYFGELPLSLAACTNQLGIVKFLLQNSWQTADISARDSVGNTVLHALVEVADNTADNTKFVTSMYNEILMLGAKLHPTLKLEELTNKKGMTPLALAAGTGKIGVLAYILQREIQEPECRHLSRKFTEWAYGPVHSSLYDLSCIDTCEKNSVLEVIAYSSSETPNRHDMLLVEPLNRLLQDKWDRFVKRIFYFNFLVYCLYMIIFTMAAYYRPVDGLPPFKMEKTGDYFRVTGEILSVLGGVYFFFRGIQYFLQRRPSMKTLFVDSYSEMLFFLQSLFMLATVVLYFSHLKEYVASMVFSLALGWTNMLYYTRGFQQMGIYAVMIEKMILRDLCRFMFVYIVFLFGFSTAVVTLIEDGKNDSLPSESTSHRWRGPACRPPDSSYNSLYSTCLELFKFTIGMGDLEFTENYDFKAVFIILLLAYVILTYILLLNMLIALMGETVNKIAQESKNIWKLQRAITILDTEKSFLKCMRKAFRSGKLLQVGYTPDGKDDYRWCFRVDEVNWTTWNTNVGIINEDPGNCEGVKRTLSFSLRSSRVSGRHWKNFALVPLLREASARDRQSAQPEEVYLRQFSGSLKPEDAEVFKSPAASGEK
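Fluo-8 calcium influx in TRPV1-expressing cells, kinetic read (ex 480/em 520 nm). Compound added and read 3 min for agonist activity, followed by capsaicin at EC20 final and 2 min further read for enhancement.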
TRPML1 ag: agonists of human TRPML1 channel; TRPML1-expressing cells, Ca2+ dye fluorescence, FDSS; host cell line not named in the record; reference of the full effect not given here; 410,000 compounds, 0.12% hits; AID 624414; activation, % (test concentration not listed); in the data active = activation above about 50%; inconclusive = about 30% to 50%; inactive = below about 30%; note: 0% is about no effect; the text of the record puts the active cut at 80%
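Tet-induced TRPML1-DL cells, 1,500 per well, cultured overnight, were loaded with a no-wash Ca2+ dye for 45–90 min. Calcium fluorescence was recorded on the FDSS for 110 s after compound addition, before the EC80 agonist (4 uM 54-4) was added.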
Menin-MLL FL inh: displaces fluorescein MLL peptide from human menin; Fluorescence polarization, fluorescein-MLL peptide displacement from menin; FP activity change, % at 61.4 µM; 290,000 tested, under 10 active; inconclusive = falling polarisation curve, or a change in total fluorescence; inactive = total fluorescence flat and polarisation flat or rising; no compound was filed as active; the % refers to the polarisation; negative = inhibition;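 note: % of control where 0% means no effect; inhibitors lower the polarisation; unlabelled MLL peptide was the positive control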
TRPML1 blocker: inhibitors of human TRPML1 channel; Q9GZU1; TRPML1-inducible cells, Ca2+ dye fluorescence, FDSS; hits give low values; inhibition of EC80 agonist-evoked calcium signal; activity change, negative = inhibition, % (test concentration not listed); 390,000 compounds, 0.02% hits; AID 624415; in the data active means activity change below about -50%; inconclusive means about -30% to -50%; inactive means above about -30%;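 note: stimulus is agonist 54-4 at its EC80 concentration; % is set by controls: 0 for no effect and ±100 for the full control effect; compound concentration not given in the record; the text of the record puts the active cut at -80%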
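Calcium fluorescence in TRPML1-DL cells induced overnight with Tet: a 110 s read after compound pin addition, then a 110 s antagonist read after challenge with 54-4 at 4 uM final (EC80).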
ClpP mod: qHTS Assay for Activators of ClpP; 340,000 compounds, 1.9% hits; purified B. subtilis ClpP, FRET peptide cleavage, 20 min; AID 651965, 2013; Potency, µM (top dose mostly 57.5 µM), without a hit: at the highest dose activity change, negative = active; active = well fitted falling curve with a large enough effect; inconclusive = small, poorly fitted or top-dose-only effect; inactive = no such curve, though single readings can be large or run the other way; note: potency is the fitted concentration of half-maximal effect; the source files actives as falling curves though it sought activators and does not explain the sign; nearly all actives have a fitted effect of over 65% in size; many hits overshoot -100%
Target sequence (P80244 whole entry, looked up): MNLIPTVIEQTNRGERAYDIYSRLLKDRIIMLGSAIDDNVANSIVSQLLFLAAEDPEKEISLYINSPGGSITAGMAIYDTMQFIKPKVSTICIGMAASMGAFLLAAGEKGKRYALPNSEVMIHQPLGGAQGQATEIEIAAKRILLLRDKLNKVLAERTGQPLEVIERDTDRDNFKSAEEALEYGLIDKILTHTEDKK
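FRET quenching reversal measured ClpP activation: 10 microg/mL B. subtilis ClpP at pH 8 with the FRET-FV decapeptide, read at 430 nm after 320 nm excitation. The 20-min minus 0-min signal was scaled between DMSO/no-enzyme wells and ADEP (5.8 microM final).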
Sfp inh: blocks B. subtilis Sfp PPTase activity. Biochemical Sfp PPTase activity, qHTS. Potency, µM, inactives show max response, negative = inhibition, usual class: inhibitors. 310,000 compounds, 3.5% hits; active = well fitted inhibition curve with a large enough effect; inconclusive = small, poorly fitted or top-dose-only effect, or another doubt; inactive = no such curve, though single readings can be large or run the other way;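 note: the enzyme is Sfp with the accession as filed and its product quenches rhodamine fluorescence; potency is the fitted concentration of half-maximal effect; 0% = enzyme reaction without inhibitor and -100% = no enzyme wells; top concentration of the series not given in the record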
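Compounds were incubated with enzyme (final 15 nM) for 15 min at room temperature before substrate addition started the reaction. Fluorescence at 525 nm excitation, 598 nm emission was recorded immediately and after 30 minutes.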
* marks the source's active call; other numbers are inactive results; ? = inconclusive; · = not tested or not shown; [ ] = remark or other dose.

Structure | PINK1 modulator | TRPML1 blocker | TRPV1 PAM | Sfp inh | Menin-MLL FL inh | ClpP mod | TRPML1 ag
CCN(C(=O)CN1CCN(c2ccccc2F)CC1)c1c(N)n(Cc2ccccc2)c(=O)[nH]c1=O | -1.2% | -10.4 | -6.7 | 3.1% | 1.3 | -14.1% | -0.4
O=C(Oc1ccc(Cl)c2cccnc12)N1CCCCC1 | · | 13.2 | -15.0 | 8.6% | 1.0 | ? | 0.3
CCOc1ccc(CNC(=O)C2CCN(c3nnc(-n4cccc4CNc4ccc(C)cc4)s3)CC2)cc1OC | 0.3% | -11.3 | · | · | · | 1.5% | -0.4
Cc1ccc(S(=O)(=O)N2CCOCC(=O)NCCOCCNC(=O)COCC2)cc1 | 2.6% | 0.4 | -9.8 | 1.0% | -1.0 | 0.8% | -0.1
CC(C)(C)NC(=O)c1ccc2c(c1)CCO2 | 0.5% | 35.0 | 9.8 | 21.7% | 5.6 | 0.7% | -0.4
Cc1ccc(OCCNC(=O)C(=O)NCc2ccco2)cc1 | -0.2% | 4.5 | -0.2 | 24.4% | -4.5 | · | 1.4
CCOC(=O)C1CCN(c2ccc([N+](=O)[O-])c(C(C)=O)c2)CC1 | -0.8% | 23.5 | 8.8 | 22.4% | 4.0 | · | 0.9
O=Cc1cc(Cl)ccc1OCCN1CCC(Cc2ccccc2)CC1 | -0.7% | 42.1 | 9.3 | -23.7% | -2.8 | · | 0.8
Cc1ccc(-n2c(C)cc(C(=O)OCC(=O)N(C)C3CCS(=O)(=O)C3)c2C)cc1 (stereo not given) | 0.1% | 14.9 | -20.9 | -17.4% | 1.1 | -2.7% | 0.0
Cc1nnc(NC(=O)CSc2nc3c([nH]c4ccccc43)c(=O)n2-c2ccccc2)s1 | 1.6% | -12.5 | · | · | · | -10.1% | -0.6
O=C(CCC(=O)N1CCN(S(=O)(=O)c2ccc(Cl)cc2)CC1)NC1CCCc2ccccc21 (stereo not given) | -2.6% | -3.3 | -2.2 | 3.8% | 7.4 | 0.6% | -0.9
COc1cc(-c2noc(CCCC(=O)Nc3ccc(C(N)=O)cc3)n2)cc(OC)c1OC | 1.2% | -3.2 | · | 15.3% | 0.8 | · | -0.6
Cc1onc(-c2ccccc2)c1C(N)=O | -0.6% | -2.3 | 6.2 | 4.5% | -0.9 | -1.0% | 0.9
CCSc1nnc(NC(=O)CCNC(=O)c2ccccc2Cl)s1 | -0.1% | -0.5 | · | · | · | 0.7% | 0.8
CCCn1c(=O)c2sccc2n2c(CCCC(=O)N3CCN(c4ccc(OC)cc4)CC3)nnc12 | -1.0% | 20.7 | · | · | · | -4.7% | 1.9
O=C(NCCN1C(=O)C2C3C=CC(C3)C2C1=O)Nc1ccccc1O (stereo not given) | 2.1% | 20.8 | 11.2 | 0.1% | 3.6 | 0.2% | -0.3
COC(=O)c1cccnc1-n1c(=O)c2cccnc2n(CC(=O)Nc2cccc(C)c2)c1=O | 9.1% | -7.3 | · | · | · | 0.7% | -1.2
COc1cccc(Cn2nnc(C(=O)NCc3ccc(Cl)cc3Cl)c2N)c1 | 5.2% | -13.2 | · | · | · | -2.2% | 1.0
CN(Cc1c(F)cccc1Cl)C(=O)c1ccc(COc2ccccc2)cc1 | 1.1% | 44.3 | 21.5 | 1.5% | · | 1.1% | 1.9
O=C(COc1ccc(S(=O)(=O)N2CCc3ccccc32)cc1Cl)NCc1ccccn1 | 2.6%[38.3 µM] | -6.5 | 5.9 | -25.3% | -2.2 | -2.4% | 0.8
O=C(COC(=O)c1ccc[nH]c1=O)NC1CCCCC1 | 2.4% | 7.5 | -0.1 | 6.6% | 1.3 | -9.1% | 0.0
COc1ccc(N2CCN(C(=O)CCc3c(C)nc4c(-c5ccccc5)c(C)nn4c3C)CC2)cc1 | 3.3% | -7.4 | · | · | · | 1.8% | -1.2
O=C1COc2ccc(C(=O)CSc3ccc(Br)cc3)cc2N1 | 4.8% | -2.9 | -12.8 | · | · | -1.4% | -1.3
Cn1c(N)c(C(=O)CN2CCN(S(=O)(=O)c3ccccc3C#N)CC2)c(=O)n(C)c1=O | -0.4% | -6.1 | · | · | · | 10.8% | -0.4
Oc1cccc(Nc2c3ccccc3nc3ccccc23)c1 | 5.4% | 8.2 | ? | -16.2% | -28.2 | 4.7% | 0.1
COc1ccc(NC(=O)c2cnn(-c3ccccc3)c2C)c(OC)c1 | 0.0% | 2.5 | 6.3 | 1.7% | 0.3 | · | -0.9
COCCNc1oc(/C=C/c2cccc(OC)c2)nc1S(=O)(=O)c1ccccc1 | 2.7% | 7.5 | · | · | · | 3.8% | 0.9
CC(C)CC(=O)Nc1nnc(SCC(=O)Nc2ccc3c(c2)OCO3)s1 | 10.3% | 7.1 | -2.0 | 21.9% | 2.7 | 1.3% | -0.2
Cc1cc(C)cc(N=Cc2ccc([N+](=O)[O-])s2)c1 | -0.8% | 11.8 | 12.6 | 11.7% | 3.5 | -2.2% | 0.5
CCOC(=O)C1CC2=C(CC(C)(C)CC2=O)N(CCOC)C1=O (stereo not given) | 0.3% | 0.1 | · | · | · | 1.3% | 2.9
N#CC1=C(N)Oc2c(oc(CO)cc2=O)C1c1ccsc1 (stereo not given) | 0.0% | 28.1 | 5.4 | 50.1µM* | 1.3 | -1.7% | 1.2
COc1ccc(C(=O)O)cc1S(=O)(=O)Nc1ccccc1-c1ccccc1 | -1.3% | -14.1 | -5.7 | 10.3% | -0.4 | · | 0.2
O=C1c2cccnc2C(Nc2ccc(S(=O)(=O)N3CCCCCC3)cc2)N1Cc1ccccc1 (stereo not given) | -1.3%[38.3 µM] | 10.0 | -10.0 | -4.5% | -2.0 | 0.6% | -0.3
CC1(C)CC(NC(=O)C(C)(C)Oc2ccc(Cl)cc2)CC(C)(C)N1 | 1.1% | -13.9 | 18.3 | 12.5% | -4.9 | -1.9% | -0.4
CCOC(=O)C1(C)CCCN1C(=O)c1ccc2ccccc2c1 (stereo not given) | 1.8% | · | · | · | · | 0.4% | -1.1
CCOC(=O)N1CCN(S(=O)(=O)N2CCCC(C(=O)NCCCN3CCCCC3CC)C2)CC1 (stereo not given) | 0.1% | 1.5 | 0.9 | 10.4% | · | -0.7% | -0.2
COc1ccccc1N1CCN(C(=O)CSc2nnc3c4ccccc4nc(Cc4ccccc4)n23)CC1 | · | · | 28.8 | 3.5% | 3.3 | · | ·
CC1CCc2c(sc(NC(=O)COc3ccccc3C(C)(C)C)c2C#N)C1 (stereo not given) | 1.2% | -3.2 | · | · | · | 0.6% | 0.0
Cc1nnc(NC2CCCCC2)[nH]c1=O | -0.9% | -17.8 | -5.4 | 1.7% | 8.7 | -1.8% | -0.3
CC(O)C(NS(=O)(=O)c1ccc(Cl)cc1)C(=O)OCCOc1ccc(F)cc1 (stereo not given) | 1.4% | -4.0 | · | · | · | -1.0% | -0.7
CCCCn1c(SCC(=O)N2CCCC2)nnc1-c1ccccc1 | -2.9% | -22.8 | 11.2 | 11.8% | 0.7 | 0.0% | 0.1
Cc1cc(C)c(Nc2cc(S(=O)(=O)O)c(N)c3c2C(=O)c2ccccc2C3=O)c(C)c1 | 8.4% | 8.7 | -0.1 | 50.1µM* | 4.4 | -5.9% | 0.3
CCOc1ccccc1C1CC(=O)NC(C)=C1C(=O)OC1CCCCCC1 (stereo not given) | 3.2% | -2.4 | · | · | · | -5.6% | -0.4
CC=C1OC(n2cnc3c(N)ncnc32)C(O)C1O (stereo not given) | 0.0% | · | · | · | · | -2.6% | -0.2
O=C1Cc2cc(S(=O)(=O)Nc3ccccc3Cl)cc3c2N1CCC3 | 1.1% | 7.1 | 6.2 | 8.7% | · | 1.9% | -0.6
CCN(CC)c1ncnc2c1ncn2[C@H]1CN(Cc2ccc(Cl)cc2)C[C@@H](CO)O1 | 1.2% | · | · | · | · | -0.8% | -0.5
CN(C)c1ccc(C(=O)NCC(c2cccs2)N2CCOCC2)cc1 (stereo not given) | 1.3% | 25.8 | · | · | · | -5.8% | -0.7
O=C(Nc1ccccc1Cl)c1cc(C2CCCN(C(=O)OCCF)C2)on1 (stereo not given) | 0.0% | -6.2 | · | · | · | 0.0% | -0.3
Cc1onc(-c2ccccc2)c1-c1n[nH]c(=S)n1-c1ccccc1 | -1.3% | 18.7 | · | · | · | 2.3% | 0.5
O=C(Cn1c(C(=O)N2CCc3ccccc3C2)cc2sccc21)c1ccccc1 | -16.6%[38.3 µM] | -2.6 | 7.9 | -6.7% | 0.4 | -0.3% | 0.6
COc1ccc2c(CC(=O)Nc3ccccc3N3CCOCC3)coc2c1 | -0.4% | -17.8 | -23.6 | 4.8% | -0.9 | · | 1.2
Cc1cc(CNC(=O)c2cc(Br)ccc2Cl)nn1C | 6.1%[38.3 µM] | 8.0 | -9.0 | 27.3% | -0.7 | 0.9% | 0.6
O=C(O)c1ccc(CS(=O)(=O)c2ccc(Br)cc2)cc1 | 0.2% | 7.7 | 2.9 | 17.3% | -2.4 | 0.1% | 0.6
CC(Sc1nnc2c(n1)C1(C)CCC2C1(C)C)C(=O)Nc1ccccc1 (stereo not given) | 0.0% | 2.6 | · | 3.3% | 7.0 | -1.4% | 2.2
C/C(=N\OCc1ccc(C#N)cc1)c1ccccc1 | 1.5% | 5.8 | 13.7 | -0.9% | -5.5 | 0.5% | 3.9
COc1cc(-c2nc(C(F)(F)F)c(OC)o2)cc(OC)c1OC | 2.1% | 1.5 | -21.0 | -10.9% | 2.0 | 114.7% | 0.8
Cn1c(C(=O)N2CCCC(C(=O)NCCN3CCOCC3)C2)cc2sccc21 (stereo not given) | -0.4%[38.3 µM] | 6.6 | 19.4 | -4.1% | -5.8 | 1.6% | -0.3
COc1ccc(-n2nc(C(=O)NCC(=O)N3CC(C)CC(C)C3)c3ccccc3c2=O)c(OC)c1 (stereo not given) | -1.6% | -23.8 | -20.6 | 3.7% | -3.2 | · | 1.6
Cc1ccc(-c2nc3ncccc3o2)cc1NC(=O)c1ccc2c(c1)OCO2 | 0.7% | 23.0 | · | · | · | · | 1.0
O=C(CCCOc1ccccc1)NNC(=O)c1ccc(Cl)cc1 | 1.6% | 8.9 | · | · | · | -2.0% | 0.0
Cc1cc([N+](=O)[O-])nn1CCCC(=O)Nc1sc2c(c1C(N)=O)CCC(C)C2 (stereo not given) | 0.9% | 17.7 | 27.9 | -2.0% | 7.6 | 1.1% | 0.8
Cc1ccc(-c2cc(C(=O)N/N=C/c3ccco3)[nH]n2)cc1 | -0.7% | 2.9 | -11.6 | 7.2% | 4.3 | -0.5% | -0.1

Screens: PubChem BioAssay, National Center for Advancing Translational Sciences (NCATS)
